Screening results from PubChem.
LANA-nucl inh: inhibitors of KSHV LANA binding to nucleosomes | FITC-LANA1-23 / chicken nucleosome fluorescence polarization; hits give low values | z-score (test concentration not listed) | 51,000 tested, 0.3% active | AID 720717;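 active means both repeat wells score below -2 in polarization z-score versus plate sample wells, excluding overly bright wells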;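 further: 100 nL library stock added to about 30 µL; numbers are from one replicate; some results filed as inactive read as strong as hits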
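Assay system: FITC-LANA peptide and chicken nucleosomes; input: 240 nM purified chicken nucleosomes (480 nM peptide binding sites), final; also added: 50 nM FITC-LANA1-23 probe; medium: TEN-BT buffer, pH 7.5; doses: pin-transferred compound, 100 nL; times: 10–45 min, room temperature; technique: fluorescence polarization; replication: duplicates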
BasE inh: inhibitors of Acinetobacter baumannii siderophore enzyme BasE; purified BasE, fluorescence polarization binding displacement; inhibition, % (concentration not given with the values); 84,000 tested, 0.1% active; AID 485350;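 active means both replicates above 25% with normal brightness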;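 further: 0% = negative plate control signal and 100% = positive plate control signal; stock transfer was 100 nL into about 30 µL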
Active calls of the source: *; . = no result given; & = joins results of further samples.

SMILES	LANA-nucl inh	BasE inh
Cc1ccccc1NC(=O)C(C)Sc1nc2ccccc2c(=O)n1C (stereo not given)	0.19	4.2
CCc1ccc(CNC(=O)CCC(=O)N2CCCn3nc(C)cc32)cc1	.	-0.9
Cc1cc(C)c2c(n1)SCC(=O)N2CC(=O)Nc1cccc(Cl)c1	-0.38	-3.3
COc1ccc(/C=C/C(=O)NC(N)=S)cc1	.	0.3
CN(C(=S)Nc1ccccc1)C1CCC(C2OCCO2)CC1O (stereo not given)	.	-2.2
COc1ccc(CCNC(=S)N2CCCCC2C(N)=O)cc1 (stereo not given)	.	0.3
Cc1cccc(-c2noc(NC(=O)NNc3c(Cl)cccc3Cl)n2)c1	1.5	0.1
CCCN(S(=O)(=O)c1ccc(C)cc1)S(=O)(=O)c1ccc(Cl)cc1	.	0.1
Nc1nonc1C(=O)NCCN=Cc1ccccc1O	0.086	2.0
O=C(CN1CCOc2ccccc21)NCc1ccc(Cl)cc1	0.14	2.5
CSc1ccccc1NC(=O)CN(C)Cc1nnc(-c2ccccc2)o1	.	-0.1
CNC(=O)CSc1nc2ccccc2c(=O)n1C1CCCCC1	-0.12	-4.2
N#Cc1c(SCc2ccccc2F)nc(C(F)(F)F)c2c1CCC2	.	2.4
Cn1nc(C(F)(F)F)c(-c2ccccc2)c1N1C(=O)C2C3C=CC(C3)C2C1=O (stereo not given)	.	1.1
C/C(=N\NC(=O)Cc1ccc(F)cc1)c1ccc(O)cc1	0.44	4.7
O=C(Cc1ncc(C(F)(F)F)cc1Cl)NCC1CCCO1 (stereo not given)	2.6	.
CCCN1C/C(=C/c2ccc(OC)cc2)C(=O)/C(=C/c2ccc(OC)cc2)C1	.	3.0
COc1cccc(NC(=O)COC(=O)CCC2CCCC2)c1	.	1.9
CC(OC(=O)CCN1C(=O)c2ccccc2C1=O)c1ccccc1 (stereo not given)	-0.22	-0.9
CC(=NCc1ccco1)C1=C(O)c2ccccc2C1=O	.	-1.8
O=C(Nc1nc2ccc(Oc3ccccc3)cc2s1)c1ccco1	.	-2.8
O=C(Nc1nc2ccccc2[nH]1)C1CC(=O)N(CCc2ccccc2)C1 (stereo not given)	.	3.4
CCSc1ncc(S(=O)(=O)c2ccccc2)c(N)n1	-1.1	0.5
O=C(c1ccc(/C=C2\Sc3ccccc3N(Cc3ccccc3F)C2=O)cc1)N1CCN(C(=O)c2ccco2)CC1	0.067	-0.1
Cc1ccc(/C=N/NC=O)o1	.	0.5
O=C(CSc1nnc(-c2cccs2)n1-c1ccccc1)OC1CCS(=O)(=O)C1 (stereo not given)	.	2.4
CC(Oc1ccc(C#N)cc1)C(=O)O (stereo not given)	.	0.9
CN(CCc1ccccn1)C(=O)c1cccc(Oc2ccccc2)c1	.	-1.2
CCCC(=O)Nc1ccc2c(C)cc(C)nc2n1	-0.47	-1.0
O=C(O)CS(=O)(=O)c1nc2ccccc2s1	1.7	-0.1
COc1ccc(O)c(C(=O)c2cc(C#N)c(=O)n(-c3c(C)n(C)n(-c4ccccc4)c3=O)c2)c1	.	1.6
CC(C)(C)NC(=O)CN1CCN(Cc2c(O)c(C(=O)N3CCOCC3)cc3ccccc23)CC1	.	-3.9
O=C(c1ccc(N2CCCC2=O)cc1)N1CCc2ccccc2C1	.	-2.6
O=c1cc(CN2CCN(Cc3ccccc3)CC2)occ1OCc1cccc(F)c1	0.76	-0.1
N=c1n(-c2ccccc2)c(=N)n(-c2ccccc2)c(=N)n1-c1ccccc1	-0.15	-0.2
CN(C)C(CNc1ncnc2cc(Cl)ccc12)c1ccco1 (stereo not given)	.	-0.7
CCCCN(C(=O)c1nc2nccc(C)n2n1)c1ccccc1	.	1.5
COc1ccc(Cc2nnc(SCC(=O)N(c3ccccc3)C(C)C)n2N)cc1OC	.	1.5
COc1ccccc1/C=C1/C(=O)N(C2CCCCC2)C(=S)N1C	1	0.7
c1csc(-c2nc(NC3=NCCCCC3)sc2-c2cccs2)c1	.	-3.6
O=C(/C=C/c1cccs1)/C=C/c1cccs1	0.89	.
CN(c1nc(-c2ccc(Br)cc2)cs1)C1CCS(=O)(=O)C1 (stereo not given)	-0.97	1.1
COc1ccc(NC(=O)CN(C)C(=O)Cc2c[nH]c3ccccc23)cc1	.	1.7
CSc1nc2nc3c(cn2n1)C(=O)CCC3	0.49	0.0
Cn1ccnc1SCC(=O)Nc1cccc2ccccc12	.	1.5
O=C(COc1nc2ccccc2nc1N1CCOCC1)N1N=C(c2ccc(Cl)cc2)CC1c1ccco1 (stereo not given)	.	-3.6
COc1cc(C(=O)NCC2COc3ccccc3O2)cc(OC)c1C (stereo not given)	.	0.8
N=c1c2c3c(sc2ncn1Nc1ccccc1)CCC3	.	0.1
Cc1cccc(OC(C)C(=O)Nc2ccc(S(N)(=O)=O)cc2)c1 (stereo not given)	-0.41	2.9
O=C(O)CSc1nc2ccccc2c(=O)n1Cc1ccco1	-0.39	-1.3

Fetched by structure from above, 3 records:
SMILES	LANA-nucl inh	BasE inh
CSc1nc2nc3c(cn2n1)C(=O)CCC3	0.49	0.0
O=C(COc1nc2ccccc2nc1N1CCOCC1)N1N=C(c2ccc(Cl)cc2)CC1c1ccco1 (stereo not given)	.	-3.6
COc1ccc(NC(=O)CN(C)C(=O)Cc2c[nH]c3ccccc23)cc1	.	1.7

Additional records:
SMILES	LANA-nucl inh	BasE inh
CCOC(=O)C1CCN(CN2C(=O)CCC2=O)CC1	0.55	1.3
CNC(=O)/C(=C\c1ccc2c(c1)OCO2)NC(=O)c1ccco1	.	0.2
O=C(c1ccc(-n2cnnn2)cc1)N(C1CCCCC1)C1CCCCC1	-1.5	-0.1
CS(=O)(=O)Nc1ccccc1C(=O)N1CCOCC1	0.23	3.1
CCNC(=O)NNc1c(Cl)cccc1Cl	0.34	-3.7
N/C(=C\C(=O)C(F)(F)F)c1ccc(Cl)cc1	0.4	-2.4
Cc1ccc(C)c(N2CCN(C(=O)CCN3C(=O)COc4ccccc43)CC2)c1	-0.94	1.0
O=C(CSC1=NS(=O)(=O)c2cc(Cl)ccc2N1)NCc1ccc2c(c1)OCO2	1.6	0.4
O=C1CN(c2ccc(Cl)cc2)C(=O)CN1/N=C/c1ccco1	-0.14	-0.6
O=C(NC1CCc2ccccc21)c1ccc2c(c1)[nH]c(=O)n2C1CCCCC1 (stereo not given)	1.2	-2.3

One compound at a time, from the list above. Values in the order: LANA-nucl inh, BasE inh
Shown for `Cc1ccc(C)c(N2CCN(C(=O)CCN3C(=O)COc4ccccc43)CC2)c1` = -0.94, 1.0
Shown for `O=C(NC1CCc2ccccc21)c1ccc2c(c1)[nH]c(=O)n2C1CCCCC1` (stereo not given) = 1.2, -2.3

Following part:
SMILES	LANA-nucl inh	BasE inh
NNC(=O)c1cc(OCC(F)(F)F)nc(OCC(F)(F)F)c1	.	-0.1
N=C(N)c1ccc(OCCCCCOc2ccc(C(=N)N)cc2)cc1	-0.6&0.6&-0.82	-18&-9.3
Cc1cc(-c2ccc(S(=O)(=O)N3CCc4ccccc43)s2)on1	.	-2.0
O=C(Nc1cc(Cl)ccc1O)c1nc2ncccn2n1	-0.4	4.2
CC1CCN(S(=O)(=O)c2ccc(S(=O)(=O)N3CCCN(Cc4ccccc4)C3)cc2)CC1	2.8	-3.6
CN(C)Cc1c(O)ccc2c(=O)c(-c3ccc(F)cc3)c(C(F)(F)F)oc12	.	1.8
CSc1ncccc1C(=O)OCC(=O)NCc1ccccc1	.	1.8
COc1ccc(C(=O)Nc2sc(C)c(C)c2CN2CCN(CCO)CC2)cc1	.	2.0
COCc1cc(=O)[nH]c2c1c(-c1cccs1)nn2C	.	0.4
CC(COc1ccc2c(c1)OCO2)NC(=O)Cn1nnc2ccccc2c1=O (stereo not given)	0.084	-0.5
O=C(Nc1ccc(S(=O)(=O)Nc2nccs2)cc1)c1cc(-c2ccccc2)nc2ccccc12	.	-1.2
Cc1sc2nc3ccc(NCc4ccco4)nn3c(=O)c2c1C	.	3.6
C/C(=C\C(=O)c1ccc(C)o1)Nc1ccc(F)c(C)c1	-0.33	2.0
Cc1nn(C2CCS(=O)(=O)C2)c(Cl)c1/C=C/C(=O)OCC(N)=O (stereo not given)	.	-0.5
CC(C)(C)n1nnnc1C(c1ccccn1)N1CCC(Cc2ccccc2)CC1 (stereo not given)	-0.38	-0.5
CS(=O)(=O)N1c2cccc3cccc(c23)S1(=O)=O	.	3.1
CCOc1ccccc1C(=O)NC1CC2CCCC(C1)N2C1CC1 (stereo not given)	0.32	-1.5
Cc1sc2nc3n(c(=O)c2c1-c1ccccc1)CCC3	.	-0.2
COc1ccc2cc(S(=O)(=O)Nc3ccccn3)ccc2c1	0.067	-1.9
Cc1nn2c(nc1=O)NN=C(c1ccccc1)C2	-1	-0.7
CCOC(=O)/C=C(\C)Nc1ccc(Cl)cc1	.	0.2
COc1ccc2c(c1)SC1=NC(c3ccccc3)(C(F)(F)F)NC(=O)N12 (stereo not given)	.	2.9
O=C(CN1C(=O)CCC1=O)Nc1ccc(OC(F)F)cc1	.	0.6
Cn1/c(=N/NC(=S)NC(=O)C2CC2)sc2ccccc21	.	2.6
O=C(NN=C1CCCC1)c1ccc(Cl)cc1	1.3	0.0
O=C(NNc1ccccc1)C(F)(F)F	.	1.4
Cc1nn(-c2ccccc2)c2sc(C(=O)C(C#N)c3ccc4ccccc4n3)cc12 (stereo not given)	.	-0.5
Cc1ccccc1OCC(=O)Nc1ccc(-c2nc3ccccc3o2)cc1	-0.71	-0.5
Cc1cc2ncc(C(=O)O)c(C(F)(F)F)n2n1	-0.36	.
O=S(=O)(c1ccc(Oc2ccccc2)nc1)N1CCCC1c1ccc(F)cc1 (stereo not given)	-1.4	.
CCn1cc(C(=O)NCC(OC)OC)c(=O)c2cc(S(=O)(=O)N3CCc4ccccc4C3)ccc21	-0.14	-2.5
CN1CCN(CNC(=O)c2cnccn2)CC1	.	-1.4
CC(=O)Nc1ccc(NC(=O)Cc2c[nH]c3ccccc23)cc1	-1.6	-0.1
CCOC(=O)C(Cc1ccccc1)C(=O)Nc1nc2ccccc2s1 (stereo not given)	.	2.8
CN1Cc2ccccc2N(CC(=O)O)C1=O	-0.54	1.3
CCN(CC)S(=O)(=O)c1ccc2c(c1)CC(C)N2C(=O)C1CC1 (stereo not given)	1	1.8
CCOC(=O)c1ccc(N2CCOCC2)c(NC(=O)c2nccnc2C(=O)O)c1	0.82	-0.1
O=C(O)c1cccc(N2CCCCC2)c1	-0.34	-2.1
Cn1cnnc1Sc1ccc(Cl)cc1NC(=O)Cn1c(=O)cnc2ccccc21	.	2.7
Nc1nc(F)nc2c1ncn2[C@@H]1O[C@H](COP(=O)(O)O)[C@@H](O)[C@@H]1O	0.27	.
Cc1ccc(S(=O)(=O)N(C)c2nc3ccccc3nc2NCCCN(C)C)cc1	.	-0.8
COc1cccc(/C=N/NC(=O)C2CC23CCC3)c1O (stereo not given)	-0.17	-4.7
CCOCC(=O)N1CCC(C(=O)OCC)CC1	-0.41	1.4
N#CCOC(=O)c1ccc(Br)o1	.	1.3
Cc1cc(NC(NC(=O)N(C)C)(C(F)(F)F)C(F)(F)F)no1	.	0.1
c1ccc2c3c([nH]c2c1)CCC3	0.46	0.5
Cc1cc(/C=C/C(=O)Nc2nccs2)c(C)n1-c1ccccc1	.	-0.4
CCOC(=O)c1cc(C(C)C)sc1NC(=O)COC(=O)c1ccc(C)o1	.	0.8
NCc1ccc(C(F)(F)F)cc1	.	-19
CC(C)CCNC(=O)CN1C(=O)C2CC=CCC2C1=O (stereo not given)	.	-3.5

Next part
SMILES	LANA-nucl inh	BasE inh
CCN(CC)c1ccc2cc(C(=O)Nc3cccc(OC)c3)c(=O)oc2c1	-0.33	-0.3
N#Cc1ccc(C2NC(=O)NC3=C2C(=O)OC3)cc1 (stereo not given)	0.39	3.1
Cc1cccc(C(CC(=O)N2CCCC2)n2cccc2)c1 (stereo not given)	-0.82	2.9
O=C1CCN(S(=O)(=O)c2ccc(Cl)c(Cl)c2)CC1	.	-0.6
COc1ccc(-c2cc(O)cc3sc(=O)oc23)cc1	.	-0.8
Cc1cc(N2CCCCC2C)n2ncnc2n1 (stereo not given)	-0.76	1.2
Cc1nc(-c2cccnc2)cs1	-0.49	-0.2
CN(C)S(=O)(=O)c1ccc2nnn(OCC(=O)NCCc3ccc(Cl)cc3)c2c1	.	-0.9
CCCN(CCC)C(=O)Cn1c(SCc2cccc(F)c2)nc2ccncc21	-1.4	0.7
CCOC(=O)C1=NN(c2ccccc2)C(=C2C(=O)c3ccccc3C2=O)C1c1cccs1 (stereo not given)	.	1.4

6 compounds from above, sorted by formula weight, highest first:
SMILES	LANA-nucl inh	BasE inh
CN(C)S(=O)(=O)c1ccc2nnn(OCC(=O)NCCc3ccc(Cl)cc3)c2c1	.	-0.9
CCCN(CCC)C(=O)Cn1c(SCc2cccc(F)c2)nc2ccncc21	-1.4	0.7
CCN(CC)c1ccc2cc(C(=O)Nc3cccc(OC)c3)c(=O)oc2c1	-0.33	-0.3
Cc1cccc(C(CC(=O)N2CCCC2)n2cccc2)c1 (stereo not given)	-0.82	2.9
COc1ccc(-c2cc(O)cc3sc(=O)oc23)cc1	.	-0.8
Cc1nc(-c2cccnc2)cs1	-0.49	-0.2

Next results follow:
SMILES	LANA-nucl inh	BasE inh
Cc1nn(C(=O)c2cc3c(s2)CCCC3)c(C)c1Sc1ccc(Br)cc1	.	2.4
FC(F)(F)C1=CC=NCCN1	0.74	2.8
Nc1ccc2c(c1)S(=O)(=O)c1cc(N)ccc1O2	0.011	1.4
O=C1CC(c2ccco2)CC(O)=C1C=Nc1cc(Cl)ccc1Cl (stereo not given)	-0.46	2.1
O=C(Cn1cnc2sccc2c1=O)NCCC1=CCCCC1	.	-1.8

These rows are one share of the data (hit frequency here may not be typical).
